Compound activity (PubChem)
eIF4H FP inh – inhibitors of RNA binding by human eIF4H; eIF4H fluorescence polarization binding assay; inhibition, % at 35 µM; actives 0.94% (n = 290,000); AID 2012; Q15056;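 active = 50% or more with normal probe brightness, or confirmed in later tests; inconclusive = above 50% with abnormal brightness, or retests that disagree; inactive = below 50% or failed in later tests; about a fifth of its hits are not listed in these tables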;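 also: calls also rest on retests at 20 µM and on dose response follow-up; 0% = protein and probe with vehicle and 100% = probe without protein; strong numbers were not always called active; many hits fall short of the cut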
Rce1 inhib – yeast Ras-converting enzyme inhibition; Q03530; yeast membranes, quenched prenylated peptide cleavage fluorescence; calls only; actives 0.27% (n = 290,000); AID 2563;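 active = fall in fluorescence gain of 50% or more versus controls, with final raw signal at or below 3038400; inconclusive = same 50% fall but final raw signal above 3038400; inactive = fall in fluorescence gain under 50%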;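 also: plate controls were neutral control wells for no effect and wells lacking membranes for full effect; tested at 10 µM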
Target sequence (Q03530 whole entry, looked up): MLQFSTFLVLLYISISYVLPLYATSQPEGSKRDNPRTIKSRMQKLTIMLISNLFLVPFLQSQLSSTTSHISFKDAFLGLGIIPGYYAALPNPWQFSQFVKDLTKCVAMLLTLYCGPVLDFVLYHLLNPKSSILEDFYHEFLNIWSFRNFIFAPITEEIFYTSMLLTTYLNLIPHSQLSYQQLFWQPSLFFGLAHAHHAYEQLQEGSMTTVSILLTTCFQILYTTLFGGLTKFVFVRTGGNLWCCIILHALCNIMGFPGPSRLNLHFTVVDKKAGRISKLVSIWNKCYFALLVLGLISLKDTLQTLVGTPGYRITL
MT1-MMP act inh – blocks activation of human MT1-MMP; P50281; HT1080 RFP-PRO-GFP cells, GFP/RFP ratio fluorescence, overnight; percent of plate control window, DMSO zero; actives 0.061% (n = 360,000); GFP/RFP ratio change, % at 20 µM;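 active = GFP/RFP ratio change of at least 30% with cell ATP level not reduced by more than half and red fluorescence within 50% of control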; also: strong numbers were not always called active
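Material: RFP-PRO-GFP reporter HT1080 cells. Dosing: single-point 20 µM compound, 1% DMSO. Controls: DMSO and RFP-L50D-GFP cell wells. Timing: cells overnight before dosing, compound overnight, 37 °C, 5% CO2. Measure: GFP/RFP fluorescence ratio.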
HIV Env fusion – blocks HIV Env-driven cell-cell fusion | HeLa-JRFL Env/CEM21 cell fusion, luciferase | inhibition, % at 12.3 µM | actives 1.1% (n = 360,000);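 active = mean replicate inhibition score of at least 50 and every replicate individually at or above 50; inconclusive = only one of the two criteria met; inactive = mean below 50 and not all replicates reaching 50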;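 also: 0% = plate neutral controls and 100% = maraviroc near 300 nM; one replicate is shown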
PABP polyA inh – PABP-poly(A) binding inhibition | actives 1% (n = 290,000) | inhibition, % at 35 µM | P11940 | AID 2014 | PABP-poly(A) RNA binding, fluorescence polarization;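 active = 50% or more with normal probe brightness, or confirmed in later tests; inconclusive = above 50% with abnormal brightness, or retests that disagree; inactive = below 50% or failed in later tests; about a fifth of its hits are not listed in these tables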;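 also: calls also rest on retests at 20 µM and on dose response follow-up; controls were probe without protein and protein plus probe with vehicle; some compounds called inactive have numbers as strong as hits; many hits fall short of the cut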
CSC inhib – blocks cancer stem cells; cancer stem cell-like cells viability, luminescence; inhibition, % at 7.5 µM; actives 1.1% (n = 300,000); AID 2717;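 active = mean at 75% or more and at least half the replicates too; inconclusive = mean and replicates disagree; tested in HMLE shEcad cells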;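 also: 0% = median of negative and 100% = median of positive control wells; the first replicate is given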
Yeast UUG start – yeast start codon fidelity modulation. AID 602363. activity score, % at 18.7 µM. S. cerevisiae UUG-firefly luciferase reporter, luminescence/redox ratio. actives 0.13% (n = 350,000);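 active = replicate mean at a twofold rise or more, about +100% in these data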;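 also: firefly luciferase made from a UUG start codon reports start codon fidelity; reporter light over untreated wells divided by growth signal over untreated wells; some hits fall short of that in this replicate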
eIF4H FP inh retest – recorded beside eIF4H FP inh, whose call it bears; inhibition, %; compound at 20 µM; confirmation average;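 mean of two retest wells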
PABP polyA inh retest – second read-out of PABP polyA inh, no call of its own (marks repeat the call); inhibition, %; compound at 20 µM; confirmation repeats;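 mean of two retest wells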
MT1-MMP act inh RFP – second read-out of MT1-MMP act inh, no call of its own (marks repeat the call); RFP signal change, %; measured here: RFP expression control read;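 0 = vehicle wells; hits needed this value within 50% of zero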
* marks the source's active call; other numbers are inactive results; i = inactive; ? = inconclusive; · = not tested or not shown. Only part of the results is shown; count on the stated rates, not on these rows.

SMILES | eIF4H FP inh | Rce1 inhib | MT1-MMP act inh | MT1-MMP act inh RFP | HIV Env fusion | PABP polyA inh | CSC inhib | Yeast UUG start | others
CC1CCN(C(=O)COC(=O)c2ccccc2C(=O)c2ccccc2)CC1 | · | · | 0 | -1 | -5 | · | -15 | 18
CCc1cccc2c(C(=O)COC(=O)c3c(C)noc3C)c[nH]c12 | 2 | i | 6 | 2 | · | 5 | -6 | -9
CCOC(=O)CSc1nc2ccccc2n2c(C)nnc12 | 4 | i | 2 | 2 | -33 | 2 | -24 | -16
O=[N+]([O-])c1ccc(CN2CC(N3CC=CC3)CS2(=O)=O)cc1 (stereo unspecified) | · | · | 2 | 4 | -1 | · | · | -6
CCc1cccc2c(C(=O)COC(=O)c3nn(C)c(=O)c4ccccc34)c[nH]c12 | -5 | i | -1 | -13 | · | 0 | -5 | -6
CCNC(=O)C1(C)CCCN(Cc2cccc3c2OCCO3)C1 (stereo unspecified) | · | · | 1 | 2 | -24 | · | · | -11
COc1ccc(C(=O)NC(C)c2nnc(SCC(=O)NC3CCCCC3)n2C)cc1 (stereo unspecified) | 0 | i | 1 | 4 | -5 | 8 | · | -8
Cc1ccc(CNC(=O)CS(=O)(=O)CC(=O)O)cc1 | 5 | i | 2 | 5 | 0 | 4 | · | -3
CCOC(=O)c1cc2c(=O)n3ccccc3nc2n(CCCOC)c1=NC(C)=O | -1 | · | 5 | 4 | -35 | -6 | -3 | -5
Cc1ccccc1SCC(=O)OCC(=O)N(C)c1c(N)n(Cc2ccccc2)c(=O)[nH]c1=O | · | i | 3 | 1 | 0 | · | -9 | 16
CC1CCC(NC(=S)NCCN(C)C)CC1 (stereo unspecified) | -7 | i | -3 | 6 | -9 | -13 | 1 | -1
CCCn1c(C)cc(C(=O)CN2C(=O)NC3(CCCCCC3)C2=O)c1C | · | · | 10 | 5 | -30 | · | · | -15
Fc1ccc(-n2c(Cn3nnc4ccccc43)n[nH]c2=S)cc1 | -7 | i | 0 | 0 | 19 | 7 | -2 | ·
CSc1ccc(CNCCCN(C)C)cc1 | 0 | i | 6 | 14 | · | -3 | · | 5
CCOc1ccc(-c2n[nH]c(=S)n2Cc2ccccc2)cc1 | 2 | i | 0 | -4 | 15 | -7 | 16 | -17
CCOc1ccccc1NS(=O)(=O)c1ccc2c(c1)N(C)CCO2 | · | i | 4 | -5 | -2 | · | 0 | -4
O=C1CC(c2ccc3c(c2)OCO3)c2cc3c(cc2N1)OCCO3 (stereo unspecified) | -6 | i | 5 | -4 | · | -8 | -10 | -3
Cc1cc(C(=O)NC2CCCN(Cc3ccc(Cl)cc3)C2)no1 (stereo unspecified) | -4 | i | -3 | 0 | 1 | -12 | -9 | -15
Cc1ccc(/C=C2/Sc3ccc(C(=O)NCCN4CCOCC4)cc3NC2=O)cc1 | -3 | i | 2 | -3 | -1 | 0 | 37 | -21
Cc1cc(NC(=O)CCC(=O)N(Cc2ccccc2)C(C(=O)NC2CCCC2)c2ccco2)no1 (stereo unspecified) | 5 | i | -3 | -2 | 0 | 11 | · | 5
O=C(O)CNC(=O)c1ccc(NC(=O)/C(=C/c2cccc([N+](=O)[O-])c2)NC(=O)c2ccco2)cc1 | -9 | i | -1 | 3 | -12 | -14 | -8 | 1
CCOc1ccc(NC(=O)CN(C)C(=O)c2ccc(COc3ccccc3)o2)cc1OCC | · | i | -2 | 0 | 10 | · | -3 | -1
COc1ccc(/C=C/C(=O)OCC(=O)NC2CCCC(C)C2C)c(OC)c1 (stereo unspecified) | · | · | -3 | 0 | -16 | · | 9 | -2
CCCCn1c(N)c(-c2nc3ccccc3o2)c2c([N+](=O)[O-])nn(CC)c(=O)c21 | 31 | i | 1 | -5 | -6 | 2 | 5 | ·
COc1ccc(Cl)cc1C(=O)NNC(=O)COC(=O)CC(NC(C)=O)c1ccccc1 (stereo unspecified) | · | i | -3 | 1 | -3 | · | -7 | ·
COc1ccc(S(=O)(=O)Nc2cc(C(C)C)c(O)cc2C)cc1 | -6 | i | -9 | -4 | 23 | 11 | 3 | ·
Nc1nc(CCOc2ccc(F)cc2)cs1 | -8 | i | 5 | 1 | -29 | ? | · | ·
CSc1nnc(C(C)(C)C)c(=O)n1/N=C/c1c(O)ccc2ccccc12 | 3 | i | 2 | 1 | -37 | 4 | -7 | -14
COc1cc(OC)c(N(C)S(=O)(=O)c2cccc(C(=O)NC(C)C3CC4CCC3C4)c2)cc1Cl (stereo unspecified) | -5 | i | -2 | -8 | 47 | -5 | -1 | -9
O=C(CN1C(=O)CCS(=O)(=O)c2ccccc21)Nc1ccc(F)cc1 | -8 | i | 4 | 1 | -4 | 3 | -12 | -12
COc1ccc(C)cc1N(C(=O)Cn1nnc(-c2ccc(C)o2)n1)C(C(=O)NC1CCCC1)c1ccncc1 (stereo unspecified) | 6 | i | -2 | -3 | 3 | 10 | · | -1
Cc1ccc(/C=N/NC(=O)c2nnn(-c3nonc3N)c2CSc2ccc(Cl)cc2)cc1 | -4 | i | 3 | -4 | 15 | 4 | -3 | -23
COc1cc(Cl)ccc1OCc1cc(C(=O)NCC(C)(C)N2CCOCC2)no1 | -3 | i | 6 | 0 | -11 | 13 | · | 0
COc1ccccc1OC(=O)CCc1nc2ccccc2s1 | 36 | i | -17 | 3 | 9 | -10 | 11 | -12
Cn1c(=O)oc2cc(S(=O)(=O)Nc3ccc(F)cc3)ccc21 | -5 | i | -1 | -1 | -10 | -1 | -14 | -24
CCN(CC(=O)Nc1ccc(NC(C)=O)cc1)C(=O)CSCC(=O)Nc1ccc(C)cc1 | · | i | 2 | -1 | -6 | · | -7 | -6
O=C(NC(=O)c1ccccc1)Nc1ccccc1 | 5 | i | 2 | 2 | -74 | 4 | 0 | -37
COc1ccc(C(CNC(=O)c2ccc(S(=O)(=O)Nc3ccccc3F)cc2)N(C)C)cc1 (stereo unspecified) | 36 | i | -2 | 1 | 7 | 53* | -10 | -6 | eIF4H FP inh retest=48;PABP polyA inh retest=116*
Cc1ccnc(NC(=O)CS(=O)(=O)c2ccccc2)c1 | -6 | i | 0 | 3 | -2 | -1 | -9 | -6
O=C(COC(=O)CNC(=O)C1CCCCC1)Nc1ccccc1 | · | · | -1 | 4 | · | · | -9 | -34
CCN(CC)CCN1C(=O)c2ccccc2NC1c1ccc(Br)cc1 (stereo unspecified) | -1 | i | 2 | 0 | -18 | 2 | 1 | ·
Cc1ccc(CN(Cc2ccccn2)C(=O)Nc2ccc(C)c(C)c2)cc1 | 4 | i | -2 | -5 | 15 | 14 | 2 | -14
O=C(O)C1(S(=O)(=O)CCC(F)=C(F)F)CC1 | 6 | i | 0 | 2 | 10 | -12 | -13 | ·
CC1(C)CC(=O)C=C(c2ccc(-c3cnn(Cc4ccccc4)c3)cc2)C1=O | · | · | 0 | -4 | -12 | · | · | -11
CC(=O)Nc1ccc(C(=O)NCC(=O)OCc2ccccc2F)cc1 | 2 | i | 4 | 3 | 8 | -2 | -20 | -23

Continued; it opens with the 3 that closed the last part.
SMILES | eIF4H FP inh | Rce1 inhib | MT1-MMP act inh | MT1-MMP act inh RFP | HIV Env fusion | PABP polyA inh | CSC inhib | Yeast UUG start | others
O=C(O)C1(S(=O)(=O)CCC(F)=C(F)F)CC1 | 6 | i | 0 | 2 | 10 | -12 | -13 | ·
CC1(C)CC(=O)C=C(c2ccc(-c3cnn(Cc4ccccc4)c3)cc2)C1=O | · | · | 0 | -4 | -12 | · | · | -11
CC(=O)Nc1ccc(C(=O)NCC(=O)OCc2ccccc2F)cc1 | 2 | i | 4 | 3 | 8 | -2 | -20 | -23
COc1cccc2c1OCC1COc3c(c(=O)n(C)c(=O)n3C)C21 (stereo unspecified) | 0 | i | 2 | -4 | · | 13 | 1 | 1
CCCc1nc(SCC(=O)Nc2ccc(N3CCOCC3)cc2)c2ccccc2n1 | -6 | i | -3 | -7 | -86 | 3 | · | -16
COc1ccc(C(=O)Oc2c(C)occc2=O)cc1OC | -5 | i | 0 | 0 | · | 5 | -9 | -13
CCN(CC)S(=O)(=O)c1cccc(NC(=O)c2cc3ccccc3o2)c1 | 5 | · | 3 | -3 | -3 | -2 | -1 | -17
COc1ccc(-c2nc(CS(=O)CC(=O)NCc3ccc(Cl)cc3)c(C)o2)cc1OC (stereo unspecified) | -14 | i | 1 | 5 | 1 | 7 | -2 | -11
CN(C(=O)CC1C(=O)NCCN1CC(c1ccccc1)c1ccccc1)C(C1CC1)C1CC1 (stereo unspecified) | -8 | i | -5 | -4 | 24 | -7 | -14 | -4
CCOC(=O)CCNC(C)C1COc2ccccc2O1 (stereo unspecified) | 11 | i | 0 | 3 | · | 21 | 7 | -10
O=C(Nc1ccccc1Cl)C1CCCN1C(=O)OCc1ccccc1 (stereo unspecified) | 2 | i | -4 | 1 | 18 | 2 | -1 | -3
CCc1nc(C)cn1S(=O)(=O)c1cc(Cl)c(OC)cc1Cl | -5 | i | 0 | 7 | · | 4 | -5 | -25
O=C(NCC1CCCO1)C1c2ccccc2C(=O)N1C1CCCCCC1 (stereo unspecified) | 6 | i | -4 | -3 | · | 6 | -1 | -2
CCCCNS(=O)(=O)/C=C/c1ccccc1 | 0 | i | -3 | -1 | 0 | 7 | · | -7
Cc1nnc(SCC(=O)N(C)c2ccccc2)n1-n1cccc1 | · | i | -2 | 4 | 12 | · | -5 | -17
CCN1CCN(c2nc3sc4c(c3c(=O)n2-c2ccc(OC)cc2)CCCCC4)CC1 | -10 | i | -6 | -4 | -15 | -13 | -14 | 1
NS(=O)(=O)c1ccc(N/N=C/c2cn(-c3ccccc3)nc2-c2ccccc2)c([N+](=O)[O-])c1 | -8 | i | 20 | -1 | 20 | -11 | 140* | -13
CCOc1ccc(/C(O)=C2/C(=O)C(=O)N(c3ccccn3)C2c2ccc(C)cc2)c(C)c1 (stereo unspecified) | 4 | i | 2 | 7 | -19 | 27 | 1 | -11
C#CCOCCOCCOCCNc1nc(N2CCN(C(=O)[C@H]([C@@H](C)CC)n3cc(CCCCN)nn3)CC2)nc(N2CCN(C(=O)[C@H](CCCCN)n3cc(CCC(=O)O)nn3)CC2)n1 | · | · | -1 | 0 | -6 | · | -1 | -9
Cc1sc2ncn(CC(=O)NCCCOC(C)C)c(=O)c2c1S(=O)(=O)N1CCN(c2ncccn2)CC1 | -8 | i | -6 | 1 | -2 | 2 | -6 | ·
O=C(COC(=O)c1cccc(S(=O)(=O)N2CCCCC2)c1)NCc1cccc(Cl)c1 | · | · | 0 | 5 | 20 | · | · | -6
C=CCNc1nnc(SCC(=O)N2CCC(C(N)=O)CC2)s1 | · | i | 2 | 1 | 7 | · | 1 | -8
CN(C(=O)c1cccc(NC(=O)Cc2ccc(NC(=O)C3CCN(C(=O)C4CC4)CC3)cc2)c1)C1CCCCC1 | · | · | -6 | -1 | 1 | · | · | 15
CCCSC1=C(C#N)C(c2ccc(OC)cc2)C2=C(CC(C)(C)CC2=O)N1 (stereo unspecified) | 4 | i | -15 | -8 | · | 0 | 11 | -19
CCOc1ccc(-n2cc(C(=O)Nc3cccc(C)n3)c3cc(OC)c(OC)cc3c2=O)cc1 | · | i | -4 | -10 | -24 | · | -4 | -8
